Compound activity as filed in PubChem BioAssay.
miR-21 reporter: miR-21 reporter, rising signal. HeLa miR-21 FLuc reporter, luciferase, 48 h. Potency, µM (doses to about 38.3 µM), for inactives: top-dose reporter change, positive = more light. 340,000 tested, under 10 active. AID 2288; active = well fitted rising curve with a large enough effect; inconclusive = small, poorly fitted or top-dose-only effect; inactive = no such curve, though single readings can be large or run the other way;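 note: % of control where 0% means no effect; miR-21 action dims this reporter so a rising signal means less miR-21 action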
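Using DMEM plus 10% FBS, HeLa miR-21-FLuc cells are incubated with test compounds (final up to about 40uM) for 48 hours; firefly luciferase signal is then imaged following reagent-mediated lysis.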
Rango complex inh: Rango-importin beta binding inhibition; Potency, µM (doses to about 92.2 µM), for inactives: at the top dose inhibition of complex formation; AID 540263; actives 0.031% (n = 340,000); Rango CFP/YFP FRET sensor + importin beta, 45 min; Q14974; active = rising FRET ratio curve, often small or poorly fitted; inconclusive = mostly compound fluorescence or quenching in the first reads; inactive = flat curves in all reads;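 note: potency is the fitted concentration of half-maximal effect; 0% = DMSO wells and 100% = buffer wells lacking importin beta; nearly all actives have a fitted effect of over 15% in size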
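FRET biosensor (snurportin 1 IBB flanked by EYFP and cerulean), 50 nM, with compound 5 min, then 0.125 microM importin beta in PBS, 1 mM DTT, 0.02% Tween-20, 0.1% BSA. CFP/YFP ratio read after 45 min at room temperature; pre-read flags interference.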
Rango release inh: inhibitors of RanGTP-induced Rango-importin beta complex dissociation; O95149+P62826; Biochemical FRET Rango-importin beta, RanGTP-induced dissociation; Potency, µM (doses to about 46.1 µM), for inactives: at the highest dose activity change, negative = inhibition; actives 0.071% (n = 340,000); active means falling FRET ratio curve, often poorly fitted, with flat reads before Ran was added; inconclusive means other falling curves, or compound fluorescence or quenching; inactive means flat or rising ratio curve;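 note: potency is the fitted concentration of half-maximal effect; % of control where 0% means no effect; nearly all actives have a fitted effect of over 45% in size; -100% = wells without RanGTP and RCC1; the record marks most hits as doubtful in a second field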
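Recombinant Rango FRET biosensor (EYFP–snurportin 1 IBB–cerulean CFP10) at 0.1 uM premixed with 0.25 uM importin beta in PBS, 1 mM DTT, 0.02% Tween-20, 0.1% BSA. Compound added 5 min; RanGTP-RCC1 (0.6 uM Ran, 2 mM GTP, 0.2 uM RCC1) then triggers release, read at 45 min.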
GLA inh pH 4.5: inhibitors of human alpha-galactosidase A at pH 4.5. AID 1467. purified enzyme, 4-MU-alpha-Gal fluorescence, pH 4.5. P06280. 230,000 tested, under 10 active. activity change, negative = inhibition, % at 105 µM; inconclusive = small, poorly fitted or top-dose-only inhibition, or a rising curve; inactive = flat fitted curve, though single readings scatter; no compound was filed as active;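 note: 0% = full activity with enzyme and -100% = basal without enzyme; dose as in the result columns while the protocol names 77 µM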
Target sequence (P06280 whole entry, looked up): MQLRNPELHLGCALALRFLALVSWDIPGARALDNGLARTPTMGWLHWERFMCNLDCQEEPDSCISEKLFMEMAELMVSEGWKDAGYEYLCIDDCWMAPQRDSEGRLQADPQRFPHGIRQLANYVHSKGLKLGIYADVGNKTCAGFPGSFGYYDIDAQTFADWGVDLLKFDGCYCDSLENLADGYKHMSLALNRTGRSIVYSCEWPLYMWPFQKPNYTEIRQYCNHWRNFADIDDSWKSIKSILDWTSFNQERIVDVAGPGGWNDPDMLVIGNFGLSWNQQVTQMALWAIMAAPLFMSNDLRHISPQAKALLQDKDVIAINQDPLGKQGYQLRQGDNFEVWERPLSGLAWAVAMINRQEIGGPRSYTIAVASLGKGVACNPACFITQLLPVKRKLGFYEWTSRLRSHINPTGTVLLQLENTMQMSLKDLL
Active calls of the source: *; ? = inconclusive; · = not tested or not shown; & = joins results of further samples. Only part of the results is shown (hit frequency here may not be typical).

| no. | miR-21 reporter | Rango complex inh | Rango release inh | GLA inh pH 4.5 | Structure |
| --- | --- | --- | --- | --- | --- |
| 1 | -1% | -1.5% | 7% | 1 | COc1ccc(NC(=O)CSc2nnc(Cn3nnc4ccccc43)n2C)cc1 |
| 2 | · | 0.0% | 4% | · | CCOc1ccc(CCNC(=O)COC(=O)c2oc3ccccc3c2COC)cc1OCC |
| 3 | -5% | -1.4% | -3% | 0 | CC1(C)CC(=O)C2=C(C1)NC(Nc1nc3ccccc3o1)=NC21CCCC1 |
| 4 | 4% | -0.7% | -9% | · | Cc1nn(Cc2noc(C(=O)NC3CCC(C)CC3)n2)c(C)c1Br (stereo unspecified) |
| 5 | 2% | 0.4% | 2% | · | Cc1ccc(S(=O)(=O)N[C@H](C(=O)N2CCC(C(=O)N[C@@H](CC(=O)O)C(=O)O)CC2)C(C)C)cc1 |
| 6 | 1% | 2.4% | 22% | -3 | COc1ccc(O)c(C=NCC(C)N=Cc2cc(OC)ccc2O)c1 (stereo unspecified) |
| 7 | -39% | 2.0% | 6% | · | C/C(=N/NC(=O)c1ccc(Br)s1)c1ccncc1 |
| 8 | -31% | -1.8% | -10% | -6 | CCOC(=O)c1cnc(Nc2ccc(OCC)cc2)nc1C |
| 9 | -4% | 0.2% | -2% | 1 | O=C(CN1CCN(c2cccc(Cl)c2)CC1)N1CCCC1 |
| 10 | 5% | 3.6% | 8% | · | CC(c1ccccc1)N1C(=O)c2ccc(C(=O)Nc3ccc(Br)cc3C(=O)O)cc2C1=O (stereo unspecified) |
| 11 | -2% | 0.6% | 3% | · | O=C(NNS(=O)(=O)c1ccc([N+](=O)[O-])cc1)C1CCCCC1 |
| 12 | -72% | 2.8% | -13% | · | COc1ccc(C2=NN(C(=O)c3ccccc3C(=O)O)C(c3ccccc3O)C2)cc1 (stereo unspecified) |
| 13 | -2% | 1.8% | -12% | · | O=C1Cc2ccccc2C(=O)N1c1ccccc1 |
| 14 | 0% | 2.3% | 7% | · | Cc1ccc2[nH]c(=O)c(CN(CC3CCCO3)C(=O)c3cccs3)cc2c1 (stereo unspecified) |
| 15 | 1% | 1.0% | 6% | -1 | C=CCSc1nc2nc(C)cc(C)n2n1 |
| 16 | 10% | ? | ? | -1 | Nn1cnnc1N/N=C/c1cc(Br)cc(Br)c1O |
| 17 | -1% | -6.7% | -9% | -1 | Cc1ccc(S(=O)(=O)NC2(C(=O)O)CCCCC2)cc1 |
| 18 | 6% | ? | ? | 8 | COc1ccc(CN=Cc2[nH]c3ccc(Br)c(Cl)c3c2O)cc1 |
| 19 | -38% | 3.8% | ? | · | NC(=Nc1ccc(Br)cc1)c1ccccc1 |
| 20 | -9% | 3.1% | 1% | -7 | CC(=O)OC1CC(C)N(C(=O)c2ccccc2)c2ccc(C)cc21 (stereo unspecified) |
| 21 | -4% | -1.2% | -2% | 5 | CCOc1cccc(CN2CCCC(CCC(=O)NCc3ccccc3F)C2)c1O (stereo unspecified) |
| 22 | 18% | -3.0% | 2% | -3 | CCCc1cc(C(=O)NNC(=S)NC(C)c2ccccc2)cs1 (stereo unspecified) |
| 23 | -13% | 0.0% | ? | · | Cc1cc(N2C(=O)Cc3ccccc3C2=O)ccc1C(C)C |
| 24 | -41% | 2.0% | 10% | -4 | O=C(O)c1cccc2c(/C=N/Nc3ccccn3)c[nH]c12 |
| 25 | -6% | -0.9% | -4% | -1 | Cc1cccc(OCC(=O)N2CCC(N3CCOCC3)CC2)c1 |

Five compounds drawn at random from those above:
| no. | miR-21 reporter | Rango complex inh | Rango release inh | GLA inh pH 4.5 | Structure |
| --- | --- | --- | --- | --- | --- |
| 8 | -31% | -1.8% | -10% | -6 | CCOC(=O)c1cnc(Nc2ccc(OCC)cc2)nc1C |
| 11 | -2% | 0.6% | 3% | · | O=C(NNS(=O)(=O)c1ccc([N+](=O)[O-])cc1)C1CCCCC1 |
| 9 | -4% | 0.2% | -2% | 1 | O=C(CN1CCN(c2cccc(Cl)c2)CC1)N1CCCC1 |
| 6 | 1% | 2.4% | 22% | -3 | COc1ccc(O)c(C=NCC(C)N=Cc2cc(OC)ccc2O)c1 (stereo unspecified) |
| 14 | 0% | 2.3% | 7% | · | Cc1ccc2[nH]c(=O)c(CN(CC3CCCO3)C(=O)c3cccs3)cc2c1 (stereo unspecified) |

3 compounds already listed, arranged by the value under miR-21 reporter, rising.
| no. | miR-21 reporter | Rango complex inh | Rango release inh | GLA inh pH 4.5 | Structure |
| --- | --- | --- | --- | --- | --- |
| 19 | -38% | 3.8% | ? | · | NC(=Nc1ccc(Br)cc1)c1ccccc1 |
| 23 | -13% | 0.0% | ? | · | Cc1cc(N2C(=O)Cc3ccccc3C2=O)ccc1C(C)C |
| 9 | -4% | 0.2% | -2% | 1 | O=C(CN1CCN(c2cccc(Cl)c2)CC1)N1CCCC1 |

The listing picks up, starting 2 compounds before the break.
| no. | miR-21 reporter | Rango complex inh | Rango release inh | GLA inh pH 4.5 | Structure |
| --- | --- | --- | --- | --- | --- |
| 24 | -41% | 2.0% | 10% | -4 | O=C(O)c1cccc2c(/C=N/Nc3ccccn3)c[nH]c12 |
| 25 | -6% | -0.9% | -4% | -1 | Cc1cccc(OCC(=O)N2CCC(N3CCOCC3)CC2)c1 |
| 26 | 4% | ? | ? | · | CSc1nc(N)c2c3c(sc2n1)CN(C)CC3 |
| 27 | 27% | ? | -28% | -18 | Cc1ccc2c(c1)S/C(=C/c1ccc[n+](C)c1)N2CCO |
| 28 | -41% | 1.8% | 7% | 2 | O=C(NCc1cccnc1)NC1(C(F)(F)F)Oc2ccccc2O1 |
| 29 | -11% | -1.6% | -2% | 4 | CN(CCC1CCOCC1)C(=O)CC1C(=O)NCCN1C/C=C/c1ccccc1 (stereo unspecified) |
| 30 | ? | -2.7% | -2% | 0 | O=C(Nc1cccc(-c2nc3ccccc3[nH]2)c1)c1cccc(NC(=O)c2ccco2)c1 |
| 31 | 2% | ? | ? | -3 | Cc1ccc(Oc2nc3c(C)cccn3c(=O)c2/C=C(\C#N)C(N)=O)cc1 |
| 32 | 0% | 0.0% | 5% | 2 | CCN(CC)CCC(=O)NN |
| 33 | -3% | ? | ? | ? | CC12CCC(=O)N1c1c(sc3nc(N4CCOCC4)c4c(c13)CCCC4)C(=O)N2 (stereo unspecified) |
| 34 | -13% | · | · | 0 | O=C(Nc1nc2c(s1)CCCC2)c1cc(-c2ccc3c(c2)OCO3)nc2ccccc12 |
| 35 | -19% | 4.3% | 12% | -3 | CCOC(=O)C1=C(C)NC(=O)NC1C (stereo unspecified) |
| 36 | -19% | ? | ? | 12 | Cc1cccc(OCC(=O)NC(=S)N2CCCc3ccccc32)c1 |
| 37 | 9% | 5.4% | 1% | -19 | COc1ccc(NS(=O)(=O)c2cc(NC(=O)c3ccc(C)o3)ccc2N2CCCCC2)cc1 |
| 38 | 1% | -1.9% | 14% | · | Cc1c(Cc2ccccc2)c(=O)oc2cc(OCC(=O)NCC3CCC(C(=O)O)CC3)ccc12 (stereo unspecified) |
| 39 | -38%&-39% | -1.3%&1.1% | 7%&-1% | -5&2 | O=c1c2ccccc2ncn1-c1ccc(Cl)cc1 |
| 40 | -3% | -0.2% | 7% | -10 | CC(C)c1ccc(-c2c(C#N)c(N)nc3c2CCCCC3)cc1 |
| 41 | -39% | -1.2% | 0% | 5 | Cc1cc(-c2cn3ccccc3n2)c(C)n1-c1ccccc1 |
| 42 | -52% | -2.1% | -1% | 0 | O=C(NC(=S)Nc1ccc2c(c1)OCCO2)c1ccc(F)cc1Cl |
| 43 | -8% | 4.8% | 1% | 0 | CC1(C)CC(=O)C2=C(C1)OC(N)=C(C#N)C21C(=O)N2CCCc3cccc1c32 (stereo unspecified) |
| 44 | -12% | -4.9% | -13% | 9 | O=S(=O)(c1ccc(F)cc1)N1CCN(CC(O)COCc2cccs2)CC1 (stereo unspecified) |
| 45 | -6% | -2.8% | 1% | -2 | CC(C)(C)NC(=O)/C(=C\c1ccccc1F)NC(=O)c1ccc([N+](=O)[O-])cc1 |
| 46 | -3% | -0.7% | 8% | · | CCCCCOC(=O)C1=C(C)NC(=O)NC1c1ccc2c(c1)OCO2 (stereo unspecified) |
| 47 | -7% | -2.1% | 2% | 18 | COCCn1cc(C(=O)N2CCN(C)CC2)c2c3ccccc3n(C)c2c1=O |
| 48 | 27% | 5.4% | 3% | -13 | CC(C)(C)OC(=O)CNC(=O)c1[nH]cnc1C(=O)Nc1ccc(CNC(=O)OC(C)(C)C)cc1 |
| 49 | -45% | 1.7% | 1% | -6 | Cc1cccc(NC(=O)Nc2cccc(F)c2)n1 |
| 50 | 7% | -5.0% | -1% | 0 | Cc1cccc(NC(=O)NCc2ccc3c(c2)OCO3)c1C |

Next section:
| no. | miR-21 reporter | Rango complex inh | Rango release inh | GLA inh pH 4.5 | Structure |
| --- | --- | --- | --- | --- | --- |
| 51 | ? | 9.4% | 41% | · | CCCCCCCCCCOC(=O)Cn1c(COc2ccccc2)[n+](C)c2ccccc21 |
| 52 | -1% | -3.0% | 20% | 0 | Cc1cc(C)n2ncc(/C(N)=N/OC(=O)Nc3ccc(Cl)cc3)c2n1 |
| 53 | 6% | 3.6% | 7% | 2 | CCCCc1nnc(NC(=O)CC(=O)Nc2ccccc2C(=O)O)s1 |
| 54 | -77% | ? | ? | 2 | Cc1cc(C)c2c(N)c(C(=O)N/N=C/c3cccs3)sc2n1 |
| 55 | 16% | 0.7% | 3% | -12 | CCN(CC)S(=O)(=O)c1cc(NC(=O)Cc2n[nH]c(=O)c3ccccc23)ccc1C |
| 56 | -4% | -1.7% | 20% | 3 | CC(O)C(NS(=O)(=O)c1ccc(Cl)cc1)C(=O)OCC(=O)N1CCN(c2ccccc2)CC1 (stereo unspecified) |
| 57 | -3% | 2.0% | 0% | 7 | Cc1ccc(-c2nc(N)n(C(=O)c3ccco3)n2)cc1 |
| 58 | -25% | -3.7% | 16% | -4 | Cc1ccc(CSc2nc3ncccc3[nH]2)cc1 |
| 59 | -6% | 0.4% | 1% | 2 | COc1ccc(C(=O)NNC(=O)CSc2ccccc2)cc1 |
| 60 | -1% | -1.1% | -21% | · | Cc1cc(Br)cc2c(C(=O)NCC3CCCO3)cc(-c3cccs3)nc12 (stereo unspecified) |
| 61 | -42% | -1.4% | -27% | -1 | Cc1ccc(NC(=S)NC(=O)c2ccccc2)cc1NC(=S)NC(=O)c1ccccc1 |
| 62 | -12% | -1.4% | -1% | 4 | COc1ccc(OCC(=O)Nc2nnc(-c3ccco3)s2)cc1 |
| 63 | 0% | 3.6% | 5% | -7 | CC(C)CN(CC(C)C)C(=S)NC1CCCCC1 |
| 64 | · | ? | 1%&4% | · | C=C[C@]1(C)C[C@@H](OC(=O)CSCCN(CC)CC)[C@]2(C)C(C)CC[C@]3(CCC(=O)[C@H]32)[C@@H](C)[C@@H]1O (stereo partly specified) |
| 65 | · | -0.6% | -8% | · | CN(C)S(=O)(=O)c1ccc(C(=O)NN2C(=O)NC3(CCCCC3)C2=O)cc1 |
| 66 | -1% | -2.0% | 13% | · | O=C(CCn1c(=O)oc2ccc(Cl)cc21)NCCCN1CCOCC1 |
| 67 | -11% | -0.5% | -4% | 6 | Cc1ccc(NC(=O)CSc2nc(CSc3ccc(C)cc3)cc(=O)[nH]2)cc1 |
| 68 | -8% | 2.0% | 6% | 9 | O=C(N/N=C/c1cccnc1)C12CC3CC(CC(C3)C1)C2 |
| 69 | 0% | 6.1% | 3% | · | NC(=O)NC(CC(=O)NCc1ccc2c(c1)OCO2)c1ccccc1Cl (stereo unspecified) |
| 70 | -1% | -3.7% | 3% | · | CCOC(=O)C1CCN(S(=O)(=O)c2ccc(CNC(=O)c3ccccc3)s2)CC1 |

Down the list, quoted from above:
Nos. 51 to 59 in Rango release inh, in turn: 41%, 20%, 7%, ?, 3%, 20%, 0%, 16%, 1%
Nos. 51 to 59 in GLA inh pH 4.5, in turn: ·, 0, 2, 2, -12, 3, 7, -4, 2
Nos. 51 to 59 in Rango complex inh, in turn: 9.4%, -3.0%, 3.6%, ?, 0.7%, -1.7%, 2.0%, -3.7%, 0.4%
